Screens deposited in PubChem by several laboratories.
RBBP9 inhibitor = blocks human serine hydrolase RBBP9. recombinant RBBP9, FP-Rh probe fluorescence polarization. 220,000 tested, 0.2% active. O75884. inhibition, % at 7.94 µM;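 active = inhibition above the campaign mean of all tested compounds plus 3 SD, cut at about 14% in these data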;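 note: plate controls were DMSO wells with RBBP9 for no effect and wells lacking RBBP9 protein for full effect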
Target sequence (O75884 whole entry, looked up): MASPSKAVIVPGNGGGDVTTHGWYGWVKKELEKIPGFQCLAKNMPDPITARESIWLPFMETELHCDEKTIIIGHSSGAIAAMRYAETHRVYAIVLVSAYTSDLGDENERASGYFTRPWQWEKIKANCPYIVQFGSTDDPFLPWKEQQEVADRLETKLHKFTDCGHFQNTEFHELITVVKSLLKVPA
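System: RBBP9 protein / Quantity: 2.5 µM RBBP9 dispensing solution, before mixing / Also added: Serine-hydrolase probe FP-Rh, 375 nM pre-mixing / Dosing: 7.94 µM single dose, 0.794% DMSO / Timing: enzyme-compound preincubation 30 min, then probe labeling 45 min, 25 °C / Signal: FP readout at 525/598 nm / Controls: DMSO-treated enzyme wells and wells lacking RBBP9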
MDM2 E3 inh = blocks human Mdm2 ubiquitin ligase activity; Q00987; cell-based MDM2 ubiquitination luciferase reporter, 2 h; 0 = plate control, 100 = twice control, blank-subtracted; signal enhancement, % at 5 µM; 210,000 tested, 0.11% active; AID 1230;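 active = signal enhancement of 30% or more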;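 note: luminescence tracks abundance of the self-degrading MDM2-luciferase fusion protein; higher signal means inhibition of MDM2 E3 ligase activity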
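Material: Stable MDM2–luciferase fusion reporter cells | Amount: 2000 cells seeded into each well | Dosing: One concentration, 5 µM, with 0.2% DMSO | Incubation: 4 h cell settling then 2 h compound exposure, 37 °C | Measured by: Luciferase luminescence | Read-out basis: % enhancement relative to plate controls after blank subtraction | Benchmarks: Control and blank well means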
NPY-Y1 antag = blocks the human neuropeptide Y Y1 receptor. HEK293-CNG Y1 cells, membrane potential fluorescence; NPY at EC95, then isoproterenol. 200,000 tested, 1% active. P25929. AID 1040. inhibition, % at 3.6 µM;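 active = inhibition above the campaign mean inhibition of all tested compounds plus 3 SD, cut at about 20% in these data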;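 note: 0% = DMSO wells given NPY plus isoproterenol and 100% = isoproterenol alone without NPY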
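material = HEK293 cells with Y1 receptor plus CNG channel | also added = NPY 25 nM then isoproterenol 1 µM plus Ro 20-1724 25 µM | schedule = dye 3 h, compound 60 min room temperature, stimulation 45 min | measured by = membrane potential fluorescence | benchmarks = high control isoproterenol alone, low control NPY with isoproterenol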
NPY-Y2 PAM-ag = potentiates or activates human NPY-Y2 receptor; cells expressing NPY-Y2, potentiator/agonist read-out; activation, % at 3.6 µM; 220,000 tested, 0.45% active; in the data active = activation above about 27%;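 note: cells stimulated with NPY near EC25 plus isoproterenol at EC100; 0% = vehicle plus submaximal agonist and 100% = vehicle plus saturating agonist; some results beyond the cut were filed as inactive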
Hck-Nef inh = inhibitors of human Hck kinase activated by Nef; 220,000 tested, 0.68% active; inhibition, % at 20 µM; P08631; Recombinant Hck-YEEI plus Nef, Z-Lyte FRET kinase assay;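 active = Hck-Nef kinase inhibition above about 50%, limit read from the data; inactive = inhibition below that limit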;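 note: 0% = DMSO with Hck plus Nef and 100% = Hck alone without Nef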
Target sequence (P08631 whole entry, looked up): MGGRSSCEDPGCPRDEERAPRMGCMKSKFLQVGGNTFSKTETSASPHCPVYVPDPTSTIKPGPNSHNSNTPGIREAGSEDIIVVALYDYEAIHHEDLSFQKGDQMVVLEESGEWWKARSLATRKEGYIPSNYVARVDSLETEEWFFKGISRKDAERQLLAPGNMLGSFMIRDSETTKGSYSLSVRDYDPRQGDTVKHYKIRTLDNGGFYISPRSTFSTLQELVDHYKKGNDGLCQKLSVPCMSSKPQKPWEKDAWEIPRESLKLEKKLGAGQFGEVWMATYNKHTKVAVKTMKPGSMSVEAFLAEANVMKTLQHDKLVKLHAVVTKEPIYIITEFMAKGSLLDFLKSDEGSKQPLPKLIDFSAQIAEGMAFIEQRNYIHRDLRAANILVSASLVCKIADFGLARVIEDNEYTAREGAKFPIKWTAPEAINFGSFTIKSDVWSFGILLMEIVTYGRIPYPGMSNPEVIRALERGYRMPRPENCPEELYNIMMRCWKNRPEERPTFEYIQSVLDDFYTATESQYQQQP
NPY1 pot ag = potentiates or activates human NPY-Y1 receptor. NPY-Y1 expressing cells, potentiator/agonist activation. activation, % at 3.6 µM. 220,000 tested, 0.37% active; in the data active = activation above about 33%, passing the limit was not always enough;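 note: cells stimulated with NPY at EC10 then isoproterenol at EC100; 0% = low agonist plus stimulus and 100% = saturating agonist plus stimulus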
p97 inhibitor = blocks human p97 ATPase activity; P55072; recombinant p97 ATPase, Kinase-Glo ATP luminescence, 3 h; inhibition, % at 8 µM; 220,000 tested, 0.42% active; in the data active = inhibition above about 15%;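 note: 0% = DMSO vehicle and 100% = wells lacking enzyme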
* marks the source's active call; other numbers are inactive results; . = no result given. The list is partial; count on the stated rates, not on these rows.

mol	RBBP9 inhibitor	MDM2 E3 inh	NPY-Y1 antag	NPY-Y2 PAM-ag	Hck-Nef inh	NPY1 pot ag	p97 inhibitor
Cc1ccccc1NC(=O)Cc1c(O)c2ccccc2[nH]c1=O	-13	-4	-1	0	-1	1	-3
Cc1ccc(C(=O)c2ccccc2C(=O)O)s1	-8	-9	-4	3	1	-8	-2
O=C(NC(Cc1c[nH]c2ccccc12)c1nnc2n1CCCCC2)c1cccs1 (configuration not stated)	1	2	5	-8	2	-16	5
COc1ccc(OCC(=O)N/N=C/c2ccc(O[C@@H]3O[C@H](CO)[C@@H](O)[C@H](O)[C@H]3O)cc2)cc1	-2	-10	0	-7	2	4	5
CC(C)C1=Nc2cccc3cccc(c23)N1	8	-1	0	12	3	26	9
Cc1ccc(CCNC(=O)CCNS(=O)(=O)c2ccc3c(c2)c(=O)n(C)c(=O)n3C)cc1	0	8	-2	-17	0	-26	2
Cc1ccc(OCC(=O)Nc2ccccc2N2CCOCC2)c(C)c1	-3	-10	3	-16	1	-22	2
CCC(C)[C@H](NC(=O)NCc1ccccn1)C(=O)OC (some centres not stated)	-4	-11	-5	-22	1	5	5
Cc1nc2sc3c(c2c(=N)n1N)CC(C)(C)OC3	-2	-6	1	-5	1	-17	-5
Cc1cc2nc(C3CCN(Cc4nnnn4Cc4ccccc4)CC3)[nH]c2cc1C	-1	-16	1	3	-1	-1	-4
O=C(O)c1ccccc1-c1ccccc1C(=O)NCCCO	-5	-8	2	-17	-1	-12	-5
COc1cc2c(cc1NC(=O)Nc1ccccc1)oc1ccccc12	-21	-14	-9	16	1	-3	3
CCn1c(C)[n+](CCCS(=O)(=O)[O-])c2cc(Cl)c(Cl)cc21	-2	-9	0	-11	-1	13	-3
Cc1ccc(-c2nc3ccccc3s2)cc1NC(=S)NC(=O)/C=C/c1ccco1	-7	2	6	-8	20	-7	6
CCCCN1C(=O)CC(Sc2ccccc2C(=O)O)C1=O (configuration not stated)	-2	-1	3	-8	-1	-13	-4
Nc1c(C(=O)NCC2CCCO2)c2nc3ccccc3nc2n1-c1ccccc1 (configuration not stated)	-6	-9	7	-6	55*	2	-1
CC1(C)CC(=O)C2=C(C1)N(Cc1ccccc1)C(=O)C2(NC(=O)C(C)(C)C)C(F)(F)F (configuration not stated)	5	-35	-1	11	-2	-2	1
COc1ccc(NC(=O)c2ccc3c(=O)n(Cc4ccco4)c(=S)[nH]c3c2)c(OC)c1	1	2	2	2	3	-6	-5
N=c1n(CCN2CCOCC2)c2ccccc2n1CC(=O)c1ccc(Cl)c(Cl)c1	-3	5	16	-5	0	-5	-4
COc1ccc(C(=O)NCC2OCCc3ccccc32)cc1 (configuration not stated)	-4	-8	1	1	1	3	2

Structural class: those above with an aryl methoxy group
mol	RBBP9 inhibitor	MDM2 E3 inh	NPY-Y1 antag	NPY-Y2 PAM-ag	Hck-Nef inh	NPY1 pot ag	p97 inhibitor
COc1ccc(OCC(=O)N/N=C/c2ccc(O[C@@H]3O[C@H](CO)[C@@H](O)[C@H](O)[C@H]3O)cc2)cc1	-2	-10	0	-7	2	4	5
COc1cc2c(cc1NC(=O)Nc1ccccc1)oc1ccccc12	-21	-14	-9	16	1	-3	3
COc1ccc(NC(=O)c2ccc3c(=O)n(Cc4ccco4)c(=S)[nH]c3c2)c(OC)c1	1	2	2	2	3	-6	-5
COc1ccc(C(=O)NCC2OCCc3ccccc32)cc1 (configuration not stated)	-4	-8	1	1	1	3	2

Carrying on.
mol	RBBP9 inhibitor	MDM2 E3 inh	NPY-Y1 antag	NPY-Y2 PAM-ag	Hck-Nef inh	NPY1 pot ag	p97 inhibitor
CCCCN1C2=C(C(=O)CCC2)C(c2ccc(Cl)c(Cl)c2)C2=C1c1ccccc1C2=O (configuration not stated)	4	-3	0	14	2	-14	2
O=C(c1ccc(Cl)cc1)c1cnc(-c2ccccc2)s1	-3	-20	2	4	1	21	1
CCCOc1ccc(-c2nc(OC)c3ccccc3n2)cc1	-5	-4	20*	3	0	-37	-2
C[C@H](NC(=O)NC1CCCc2ccccc21)C(=O)O (some centres not stated)	-6	-10	2	6	0	-19	8
O=C(NCCN1CCOCC1)c1ccccc1[N+](=O)[O-]	-7	-5	-1	-6	0	-7	-1
CCOC(=O)N1CCN(C(=O)Cc2ccsc2)CC1	-5	-17	0	-23	1	1	4
CCOc1ccccc1N1CN(CC)CNC1=S	-4	-10	9	5	-1	2	3
CC(C)NS(=O)(=O)c1ccc(NC(=S)NC(=O)c2ccc(-c3ccccc3)cc2)cc1	-13	-5	10	-8	1	-7	0
Cc1ccc(OCc2nnc(SCC(=O)O)n2N)cc1	-4	-17	4	1	1	-12	-2
NS(=O)(=O)c1ccc(CCNC(=O)CSc2ccccc2)cc1	-4	-4	4	-10	-2	-22	2
CN(C)C(=O)COn1c(SCC(=O)N(C)C)nc2ccccc2c1=O	6	-8	-7	9	0	3	0
Nc1nnnn1/N=C\c1ccc(Cl)c([N+](=O)[O-])c1	-4	-1	-2	-23	-1	-17	2
COC(=O)C1=C(C(=O)c2ccc(C)cc2)C(c2ccccc2)n2nnnc2N1 (configuration not stated)	-9	-3	2	-6	0	-1	0
O=C(N/N=C/c1cccc2cccnc12)c1ccccc1O	-10	-41	.	38*	1	36	3

Part of the list above in a different format.
structure: CC(C)NS(=O)(=O)c1ccc(NC(=S)NC(=O)c2ccc(-c3ccccc3)cc2)cc1
  RBBP9 inhibitor: -13; MDM2 E3 inh: -5; NPY-Y1 antag: 10; NPY-Y2 PAM-ag: -8; Hck-Nef inh: 1; NPY1 pot ag: -7; p97 inhibitor: 0

structure: Cc1ccc(OCc2nnc(SCC(=O)O)n2N)cc1
  RBBP9 inhibitor: -4; MDM2 E3 inh: -17; NPY-Y1 antag: 4; NPY-Y2 PAM-ag: 1; Hck-Nef inh: 1; NPY1 pot ag: -12; p97 inhibitor: -2

structure: NS(=O)(=O)c1ccc(CCNC(=O)CSc2ccccc2)cc1
  RBBP9 inhibitor: -4; MDM2 E3 inh: -4; NPY-Y1 antag: 4; NPY-Y2 PAM-ag: -10; Hck-Nef inh: -2; NPY1 pot ag: -22; p97 inhibitor: 2

structure: CN(C)C(=O)COn1c(SCC(=O)N(C)C)nc2ccccc2c1=O
  RBBP9 inhibitor: 6; MDM2 E3 inh: -8; NPY-Y1 antag: -7; NPY-Y2 PAM-ag: 9; Hck-Nef inh: 0; NPY1 pot ag: 3; p97 inhibitor: 0
